Screening results (PubChem BioAssay)
quorum sensing: Vibrio cholerae quorum sensing activators, luminescence (AID 686977); V. cholerae quorum sensing reporter, luminescence, 6 h; higher luminescence means a stronger effect; most inactives read 0; one-dose luminescence at 50 µM unless noted; EC50 in µM for titrated hits; 9,400 tested, under 10 active;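 active = light above mean plus 3 SD and confirmed in a dose series; inconclusive = above that limit without a clear retest; inactive = below it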;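 note: raw light counts without normalisation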
The depositor's hits bear a star; ? = inconclusive; [ ] = dose if it differs, or a comment.

molecule | quorum sensing
COc1ccc(-c2nc(CCNC(=O)c3ccc(Br)o3)cs2)cc1 | 0
Cn1c(NC(=O)CCc2ccccc2)cc(=O)n(C)c1=O | 40
CN(C)CCC(c1ccc(Br)cc1)c1ccccn1 (stereo unspecified) | 0[10 µg/mL]
CCOC(=O)N1CCN(CC(=O)c2ccc3c(c2)CCN3C(C)=O)CC1 | 0
CCCC(=O)NCCCc1nc2ccccc2n1C | 0
Cc1cccc(N2CCN(c3nnnn3-c3ccccc3)CC2C)c1 (stereo unspecified) | 40
CCN1CCCC1CNC(=O)Cn1cccc1C(=O)c1ccccc1C (stereo unspecified) | ?
Nc1nc(=S)c2ncn([C@@H]3O[C@H](CO)[C@@H](O)[C@H]3O)c2[nH]1 | 40[10 µg/mL]
COCCNC(=O)c1cc2c(-c3ccc(Cl)cc3)nn(C)c2s1 | 200
CC1CCCN(C(=O)c2sc3cc([N+](=O)[O-])ccc3c2Cl)C1 (stereo unspecified) | 0
Cc1cc2cc(CN(Cc3ccc4c(c3)OCO4)C(=O)c3cnccn3)c3nnnn3c2cc1C | 40
O=C(c1cc2c(s1)-c1ccccc1OC2)N1CCN(c2ccccn2)CC1 | 0
CCOC(=O)N1CCC(N2C(=O)c3ccccc3C2Nc2ccc3c(C)cc(=O)oc3c2)CC1 (stereo unspecified) | 0
CNC(=O)c1nnc(Cc2ccc(F)cc2)o1 | 40
O=C(NCCN1CCOCC1)c1cccs1 | 0
Cc1c(C(=O)OCC(=O)N2CC(=O)Nc3ccccc32)oc2ccc(Br)cc12 | 0
O=C1C2CCCN2C(c2ccccc2)N1c1cccc(Cl)c1 (stereo unspecified) | 40
CC1CCCC(NC(=O)c2ccc(CNc3c(N4CCCC4)c(=O)c3=O)cc2)C1C (stereo unspecified) | 0
CCCc1cc(C(=O)N2CCN(C(c3ccccc3)c3ccccc3)CC2)no1 | 0
COc1ccc(C2c3sc(=O)[nH]c3SC3C(=O)N(c4ccccc4)C(=O)C32)cc1 (stereo unspecified) | 0
O=C(CSc1nnc2c(n1)[nH]c1ccccc12)Nc1ccc2c(c1)OCO2 | 40
CC1S/C(=C(\C#N)C(N)=O)N(c2ccc(F)cc2)C1=O (stereo unspecified) | 40
O=C(Cn1ccc2ccccc2c1=O)NCCC(=O)Nc1ccc2c(c1)OCCO2 | 40
CC(C)C[C@H]1C(=O)N2CCC[C@H]2[C@]2(O)O[C@](NC(=O)[C@@H]3C=C4c5cccc6[nH]cc(c56)C[C@H]4N(C)C3)(C(C)C)C(=O)N12 | 0[10 µg/mL]
CCOc1ccc(-c2nc(-c3ccc(OC)cc3)no2)cc1OCC | 0
O=C(CSc1nnc(-c2ccccc2Br)o1)N1CCN(C(=O)c2ccco2)CC1 | 0
Oc1cnn(-c2ccccc2)c1 | 0
OCCN(CCO)Cc1ccc(Br)cc1 | 0
CC1CC(C)CN(Cc2nc(N)nc(Nc3ccc4ccccc4c3)n2)C1 (stereo unspecified) | 0
CCc1nnc(NC(=O)CSc2nc3c(c(=O)n2CC)SC(C)C3)s1 (stereo unspecified) | 40
CSc1nnc(CSCc2ccc(Cl)cc2Cl)n1-c1ccccc1 | 40
O=c1[nH]c2ccsc2c(=O)n1-c1ccc(F)cc1 | 40
CCOC(=O)COc1cccc2c(=O)n(CC(=O)N3CCCc4ccccc43)ccc12 | 0
Cn1c(SCC(=O)NC(C)(C)C)nc(O)cc1=O | 0
O=C(Nc1ncn[nH]1)c1c(Cl)ccc(Cl)c1Cl | 0
O=C(CCN1CCN(c2ccc(Cl)cc2)CC1)Nc1nccs1 | 0
CCNC(=O)c1ccc(NS(=O)(=O)c2ccccc2)cc1 | 40
O=C(Cn1cccc1C(=O)c1ccccc1)NCc1ccc2c(c1)OCO2 | 0
N#Cc1ccccc1CSc1nc(N2CCCCC2)nc(N2CCCCC2)n1 | 40
COc1ccc(OC)c2[nH]c(=O)c(CCNC(C)=O)cc12 | 0
COc1ccc(C)cc1S(=O)(=O)N(CC(N)=O)Cc1ccccc1 | 0
CCOc1cc2nc(-c3ccc(OC)c(OC)c3)nc(NCCCN3CCOCC3)c2cc1OC | 0
CCCCn1ccnc1C(=O)c1cc(S(=O)(=O)N2CCOCC2)ccc1C | 0
O=C(CSc1nc2ccccc2c(=O)[nH]1)N1CCCCC1 | 760
CCc1c(C)nc2c(C#N)c[nH]n2c1=O | 40
CC(N=C(NC#N)Nc1ccncc1)C(C)(C)C (stereo unspecified) | 0[10 µg/mL]
CCN(CC)C(=O)c1ccccc1NS(=O)(=O)c1ccc(C)cc1 | 0
Cc1nc2ccc(S(=O)(=O)NC(C(=O)NCc3ccc4c(c3)OCO4)C(C)C)cc2s1 (stereo unspecified) | 0

Arranged by length of the SMILES (ascending): part of the list above.
molecule | quorum sensing
CCc1c(C)nc2c(C#N)c[nH]n2c1=O | 40
COc1ccc(C)cc1S(=O)(=O)N(CC(N)=O)Cc1ccccc1 | 0
Cc1nc2ccc(S(=O)(=O)NC(C(=O)NCc3ccc4c(c3)OCO4)C(C)C)cc2s1 (stereo unspecified) | 0

Further structures:
molecule | quorum sensing
Cc1csc(SCc2nnc(-c3ccc(Cl)cc3)o2)n1 | 40
CC(c1ccccc1)C(CC(=O)O)C(=O)NC1CCCCC1 (stereo unspecified) | 0
O=C1c2ccccc2-c2onc3ccc(NCc4ccco4)c1c23 | 0
CN(Cc1nc2ccccc2n1C)S(C)(=O)=O | 40
COc1cc(-c2nc3n(n2)C(c2ccc(F)cc2)C2=C(CCCC2=O)N3)cc(OC)c1OC (stereo unspecified) | 40
CCOCCCNS(=O)(=O)c1cc(Br)cc2c1N(C(=O)C1CC1)CC2 | 0
CO[C@@]1(NC(=O)CSCC#N)C(=O)N2C(C(=O)O)=C(CSc3nnnn3C)CS[C@@H]21 | 240[10 µg/mL]
CCCn1c(CN2CCCCC2CC)nc2c1c(=O)n(C)c(=O)n2C (stereo unspecified) | 40
Nc1nc2n(n1)C(c1ccccc1Cl)CC(c1ccc(F)cc1)N2 (stereo unspecified) | 40
CCOC(=O)N1CCC(N2CC34C=CC(O3)C(C(=O)Nc3ccc(OCC)cc3)C4C2=O)CC1 (stereo unspecified) | 0
CC(C)(Oc1ccc(Cl)cc1)C(=O)O | 40[10 µg/mL]
COCCOc1cnn(-c2cc(Oc3ccc(C)cc3)ncn2)c(=O)c1Cl | 0
CC(C)CCNC(=O)Cn1cc2c(n1)CCCCC2 | 40
C=CCOC(=O)C1=C(C)OC(N)=C(C(=O)OCC)C12C(=O)N(CC(N)=O)c1ccccc12 (stereo unspecified) | 0
Cc1ccc(CNC(=O)c2ccc(CNc3c(N4CCCC4)c(=O)c3=O)cc2)cc1 | 0
CSc1nc2ccc3nc(NC(=O)C4COc5ccccc5O4)sc3c2s1 (stereo unspecified) | 0
COc1ccccc1C1N(c2cc(Cl)ccc2OC)C(=O)C2CCCN21 (stereo unspecified) | 40
CCOC(=O)N1CCN(c2c(NCc3ccccn3)c(=O)c2=O)CC1 | 160
O=C(Nc1ccccc1C(=O)N1CCCCC1)c1cccc(S(=O)(=O)N2CCOCC2)c1 | 0
O=C(Nc1ccc(Cl)cc1Cl)C1=Cc2ccccc2OC1 | 0
COC(=O)Nc1ccc2c(c1)ncn2C1CCCCC1 | 0
Cc1ccc2cc(CN(C(=O)c3ccco3)c3ccccc3)c(=O)[nH]c2c1 | 0
CC1=C(C(=O)OC(C)C)C(c2cccc(F)c2)N2C(=O)C(C)SC2=N1 (stereo unspecified) | 0
Nc1ccc(-c2n[nH]c(=O)c3ccccc23)cc1N | 40
CCCCC(CC)CNC(=O)C1C2C=CC(C2)C1C(=O)O (stereo unspecified) | 0
COCc1[nH]nc2c1C(c1ccc(OC)c(OC)c1)C(C#N)=C(N)O2 (stereo unspecified) | 0
N[C@@H](Cn1ccc(=O)c(O)c1)C(=O)O | 40[10 µg/mL]
CCCn1cnc2c(sc3nc4c(cc32)CSC(C)(C)C4)c1=O | 0
Cn1c(C(=O)N2CCN(Cc3ccccc3)CC2)cc2c(=O)n(C)c3ccccc3c21 | 40
CC1CCN(c2nc3c(c(=O)[nH]c(=O)n3C)n2Cc2ccccc2Cl)CC1 | ?
CCn1c(CCCNC(=O)c2cccs2)nc2ccccc21 | 40
Cc1cc2oc(C(=O)NCc3ccncc3)c(C)c2cc1C | 280
CC(=O)Cc1nsc(NC(=O)c2cccs2)n1 | 280
O=c1[nH]c(=O)n(C2CCCCCC2)c(O)c1C=NCCCN1CCOCC1 | 0
c1nnnn1C12CC3CC(CC(C3)C1)C2 | 0
Cc1snc2sc(C(=O)c3ccc(Br)cc3)c(N)c12 | 0
COC(=O)C1CCN(C(c2cc(OC)c(OC)c(OC)c2)c2sc3nc(C)nn3c2O)CC1 (stereo unspecified) | 0
COc1ccccc1NC(=S)N1CCC(c2nc3cc(C)c(C)cc3[nH]2)CC1 | ?
CON(c1nc(N(C)C)nc(N(C)C)n1)S(=O)(=O)c1ccccc1Cl | 0
CCCSc1nc(N)c2c3c(sc2n1)CN(C)CC3 | 0
O=C(NCCN1CCCCCC1)C1CCC(CNS(=O)(=O)c2cccc3cccnc23)CC1 (stereo unspecified) | 0
Clc1ccc(COC(Cn2ccnc2)c2ccc(Cl)cc2Cl)cc1 (stereo unspecified) | 40[10 µg/mL]
Cc1cc(C(=O)NNCc2ccccc2)no1 | 0[10 µg/mL]
CC1(c2ccccc2)NC(=O)N(CC(=O)NC(=O)NCc2ccco2)C1=O (stereo unspecified) | ?
COc1ccc(C2N(C(=O)CN3CCOCC3)CCN2S(=O)(=O)c2ccccc2)cc1 (stereo unspecified) | 0
O=C(c1ccccc1[N+](=O)[O-])N1CCC(Cc2ccccc2)CC1 | 0
N#C/C(=C\c1ccccc1)C(=O)NC(=O)Oc1ccccc1 | 0
C=CCn1c(Cc2cccs2)nnc1SCC(=O)Nc1ccc(C(=O)OCC)cc1 | 0
O=C(Cn1cc2c(n1)CCCC2)Nc1ccccc1Cl | 0
CCOc1ccc2nc(SCC(=O)Nc3ccc4c(c3)OCCO4)[nH]c2c1 | 0
O=c1c(-c2ccc(Cl)cc2)[n+]([O-])c2ccccc2n1O | 0
Cc1cc(NC(=O)C2CCCCC2)n(-c2nc3ccccc3[nH]2)n1 | 40
CC(C)(C)n1nc2c(c1NC(=O)Cc1ccc(F)cc1)CSC2 | 0
CCc1nc(SCC(=O)N2CCC(Cc3ccccc3)CC2)c2c(=O)n(C)c(=O)n(C)c2n1 | 40
COc1ccc(N2C(=O)C3CCCN3C2c2ccc(C)cc2)cc1 (stereo unspecified) | 0
COc1ccc(C2=NN(CN3C(=O)C(=O)c4ccccc43)C(c3ccc(Br)cc3)C2)cc1 (stereo unspecified) | 40

Next section
molecule | quorum sensing
CO[C@@]1(NC(=O)C2SC(=C(C(N)=O)C(=O)O)S2)C(=O)N2C(C(=O)O)=C(CSc3nnnn3C)CS[C@@H]21 (stereo partly specified) | 0[10 µg/mL]
COc1ccccc1NC(=O)Cn1nnc(-c2ccccc2NC(=O)c2ccco2)n1 | 0
Cc1ccc(O)c(N=CC2=C(O)c3ccccc3C2=O)c1 | 0
O=C(NCC(c1cccnc1)N1CCN(c2ccccc2F)CC1)c1ccco1 (stereo unspecified) | 0
Cc1cccc(C)c1NC(=O)Cn1nnc(-c2ccc(N3CCOCC3)cc2)n1 | 320
CCC(C)(C)n1nnnc1C(c1ccc(C)cc1)N1CCN(Cc2cccnc2)CC1 (stereo unspecified) | 0
O=C1c2ccccc2C(Nc2ccc(Cl)cn2)N1c1cccnc1 (stereo unspecified) | 40
CC(=O)Nc1ccc(S(=O)(=O)NC2(C(F)(F)F)C(=O)Nc3c2c(=O)n(C)c(=O)n3C)cc1 (stereo unspecified) | 0
Cn1c(C(=O)N2CCCc3ccccc32)cc2c(=O)n3ccccc3nc21 | 160
O=C(NCC1COc2ccccc2O1)C1CCCN(S(=O)(=O)c2cccc3cccnc23)C1 (stereo unspecified) | 0
CN(C(=O)COc1cc(=O)n(C)c2ccccc12)c1cccc(Cl)c1 | 0
COC(=O)C1(C)NC(=O)c2ccccc2N1 (stereo unspecified) | 40
COc1ccccc1CCNC(=O)CSc1nc(-c2ccco2)cc(C(F)(F)F)n1 | 0
Cc1ccc(S(=O)(=O)[N-]c2nc3ccccc3nc2-n2cc[n+](CCC(C)C)c2)cc1 | 40
O=C(c1cccnc1)N1CCN(Cc2ccccc2Br)CC1 | 40
O=C(O)CN(CCN(CC(=O)O)CC(=O)O)CCN(CC(=O)O)CC(=O)O | 40[10 µg/mL]
CC1CCCCC1NC(=O)c1ccc(S(=O)(=O)N2CCCC2)cc1 (stereo unspecified) | 40
O=C(c1ccco1)N1CCN=C1SCc1ccc(F)cc1 | 0
CCC(=O)NCCc1nc2cc(NC(=O)c3ccccc3OC)ccc2n1C | 0
CCOCCCNC(=O)C(c1ccc(Cl)cc1)N1CCN(c2ccccc2)CC1 (stereo unspecified) | ?
CC(=O)CC(c1ccc([N+](=O)[O-])cc1)c1c(O)c2ccccc2oc1=O (stereo unspecified) | ?
CCOC(=O)C1CCN(c2c(NC3CCCCCCC3)c(=O)c2=O)CC1 | 0
COc1ccccc1CNC(=O)CCn1c(=O)oc2ccccc21 | 0
C[C@H](N)c1nnc(SCc2c(Cl)cccc2Cl)o1 | 0

Given with each value named: entries from further up.
> CCC(=O)NCCc1nc2cc(NC(=O)c3ccccc3OC)ccc2n1C
  quorum sensing: 0
> CCOCCCNC(=O)C(c1ccc(Cl)cc1)N1CCN(c2ccccc2)CC1 (stereo unspecified)
  quorum sensing: ?

Not all compounds are listed; the hit share may differ from the screen's.
